HSV augment: HSV replication enhancement; HSV replication augmentation in cells, fold increase; maximum fold increase; 0.005% of 220,000 active;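 active means peak rise of 1.5-fold or more in the series; tested in PC3 cells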;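 further: first round at 10 µM; read as green reporter fluorescence; hits show the peak of a series up to 25 µM; 1 = signal of infected wells without compound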
PKD1 inh: inhibitors of human PKD1 kinase; inhibition, %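 (about 10 µM by stock and volumes)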; 0.056% of 200,000 active; Q15139; PKD1 kinase fluorescence polarization assay;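 active means inhibition of 50% or more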;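 further: controls were vehicle for no effect and a reference inhibitor for full effect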
Target sequence (Q15139 whole entry, looked up): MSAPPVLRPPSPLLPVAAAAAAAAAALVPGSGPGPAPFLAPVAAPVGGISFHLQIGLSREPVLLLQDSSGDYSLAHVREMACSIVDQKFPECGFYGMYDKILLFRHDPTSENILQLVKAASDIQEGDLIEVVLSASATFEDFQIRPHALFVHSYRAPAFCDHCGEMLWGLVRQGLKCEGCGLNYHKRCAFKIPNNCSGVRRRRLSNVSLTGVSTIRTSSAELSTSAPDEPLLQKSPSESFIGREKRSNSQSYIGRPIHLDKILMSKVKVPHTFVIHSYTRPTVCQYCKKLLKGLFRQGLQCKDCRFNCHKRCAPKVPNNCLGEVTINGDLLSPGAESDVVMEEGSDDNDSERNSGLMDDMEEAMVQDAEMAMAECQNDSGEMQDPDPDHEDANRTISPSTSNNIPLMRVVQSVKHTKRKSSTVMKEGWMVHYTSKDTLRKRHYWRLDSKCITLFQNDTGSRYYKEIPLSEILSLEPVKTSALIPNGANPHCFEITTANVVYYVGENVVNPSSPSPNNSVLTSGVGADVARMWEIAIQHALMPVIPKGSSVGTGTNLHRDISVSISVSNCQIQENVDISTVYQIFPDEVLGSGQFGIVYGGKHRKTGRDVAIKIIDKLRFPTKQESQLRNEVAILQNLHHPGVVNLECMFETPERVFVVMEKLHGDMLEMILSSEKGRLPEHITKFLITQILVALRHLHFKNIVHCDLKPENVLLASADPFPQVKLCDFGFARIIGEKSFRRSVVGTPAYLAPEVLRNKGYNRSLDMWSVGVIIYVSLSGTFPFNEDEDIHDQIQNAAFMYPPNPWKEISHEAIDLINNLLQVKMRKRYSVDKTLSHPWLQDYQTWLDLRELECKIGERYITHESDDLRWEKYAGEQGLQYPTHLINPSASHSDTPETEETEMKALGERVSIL
GALR2 ag: agonists of human galanin receptor 2 (GALR2). O43603. AID 803. activation, %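 (tested at 5 µM)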. 0.48% of 140,000 active. GALR2-expressing cells, agonist activation read-out;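 active means above mean plus 3 SD of all compounds, about 5% in these data, not always enough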;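 further: 0% = vehicle buffer wells and 100% = reference agonist at full effect; tested in CHO reporter cells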
INS promoter inh: TRM-6 insulin promoter activity inhibition. inhibition, % at 2 µM. AID 1273. TRM-6 cells (human fetal islet line), insulin promoter-eGFP reporter, imaging; reporter expression induced with tamoxifen. 0.9% of 130,000 active;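 active means inhibition above the mean plus 3 SD, with well images judged a real hit on visual review, cut at about 60% in these data, passing the limit was not always enough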
RGS16-Gao HTS: regulators of human RGS16-Galphao interaction; binding response (% of control), % at 10 µM; 0.38% of 220,000 active; O15492+P09471; bead-based flow cytometry RGS16-Galphao binding, fluorescence; actives lie on both sides;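 active means below 25% or above 175%, edge rows of some plates excepted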;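 further: Galphao activated by GDP with aluminum fluoride before binding; 100% = wells without compound and 0% = beads without RGS; some results beyond the cut were filed as inactive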
INS promoter inh cell count: further read-out of INS promoter inh, marked with its call; normalized cell count, %; measured here: cell count, toxicity; reference of the scale not given here;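 cells exposed to compound for 48 h; stained nuclei by imaging scaled within each plate; lower means fewer cells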
HSV augment primary fold: also measured in HSV augment; calls as there; fold increase; compound at 10 µM; measured here: primary screen fold increase 10 uM; tested in PC3 cells;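 GFP signal in the first replicate; 1 = infected wells without compound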
* marks the source's active call; other numbers are inactive results; i = inactive; nt = no result given.

SMILES | HSV augment | HSV augment primary fold | PKD1 inh | GALR2 ag | INS promoter inh | INS promoter inh cell count | RGS16-Gao HTS
COc1cc(Nc2cc(C)nc3nc(C)nn23)cc(OC)c1OC | i | 0.83 | -4 | 0.0 | nt | nt | 103
CC(C(=O)O)n1c(C(F)(F)F)nc2ccccc21 (stereo unspecified) | i | 1 | -3 | 0.1 | -20 | 193 | 109
COc1ccc(-c2cnc3ncnn3c2N)cc1 | i | 1 | 4 | nt | nt | nt | 93
COc1ccc(/C=C/C(=O)Nc2ccc(-n3nncc3-c3ccc(OC)c(OC)c3)cc2)cc1OC | i | 0.87 | 2 | 1.6 | -18 | 113 | 100
C=CCNC(=O)Nc1cc(Cl)ccc1OC | i | 1.1 | -2 | nt | nt | nt | 101
COc1cccc(N2CCN(C(=O)c3[nH]c(C)c(C(C)=O)c3C)CC2)c1 | i | 0.87 | -1 | -3.0 | nt | nt | 47
COc1ccc(C(=O)NC(=S)Nc2nc(C)cc(C)n2)cc1Br | i | 0.86 | nt | nt | nt | nt | 100
COc1cccc(C(=O)Oc2ccc3c(C)cc(=O)oc3c2C(C)=O)c1 | nt | nt | 4 | -1.2 | 38 | 85 | 106
COc1ccc(CCCc2nnc(SCC(=O)Nc3cc(C)ccc3C)o2)cc1 | i | 0.96 | -1 | -2.0 | -68 | 83 | 92
Cc1cc[n+](C2=C([O-])c3ccccc3C(=O)/C2=N\S(=O)(=O)c2cccs2)cc1C | i | 0.84 | -2 | -0.1 | -48 | 115 | 100
Cc1ccc(NC(=O)c2cc3nc(C)cc(C)n3n2)cc1 | i | 1 | -3 | -1.7 | 21 | 111 | 102
COc1ccc(/C=C/C(=O)c2c(O)cc(C)oc2=O)c(OC)c1 | i | 1.2 | -11 | 0.6 | -60 | 97 | 103
CCN(C(=O)CN1CCN(c2ccccc2OC)CC1)c1c(N)n(Cc2ccccc2)c(=O)[nH]c1=O | i | 1 | -10 | -0.1 | 11 | 153 | 125
NC(=O)NOCc1ccc(F)cc1Cl | i | 0.93 | -9 | nt | nt | nt | 92
COc1cc(C2C(C(=O)c3ccc(C)o3)=C(O)C(=O)N2CCc2ccccc2)ccc1O (stereo unspecified) | i | 1 | 0 | -3.8 | -123 | 76 | 100

Five entries from above, tab-delimited:
Molecule	HSV augment	HSV augment primary fold	PKD1 inh	GALR2 ag	INS promoter inh	INS promoter inh cell count	RGS16-Gao HTS
Cc1cc[n+](C2=C([O-])c3ccccc3C(=O)/C2=N\S(=O)(=O)c2cccs2)cc1C	i	0.84	-2	-0.1	-48	115	100
Cc1ccc(NC(=O)c2cc3nc(C)cc(C)n3n2)cc1	i	1	-3	-1.7	21	111	102
COc1ccc(/C=C/C(=O)c2c(O)cc(C)oc2=O)c(OC)c1	i	1.2	-11	0.6	-60	97	103
CCN(C(=O)CN1CCN(c2ccccc2OC)CC1)c1c(N)n(Cc2ccccc2)c(=O)[nH]c1=O	i	1	-10	-0.1	11	153	125
NC(=O)NOCc1ccc(F)cc1Cl	i	0.93	-9	nt	nt	nt	92

Going on with the list.
SMILES | HSV augment | HSV augment primary fold | PKD1 inh | GALR2 ag | INS promoter inh | INS promoter inh cell count | RGS16-Gao HTS
O=C(c1ccccc1)C1C(=O)c2ccccc2C1=O | i | 1.2 | 2 | -1.6 | nt | nt | 103
CCONC(=O)Nc1ccccc1 | nt | nt | 4 | -2.7 | nt | nt | 113
Cc1cc(C)c2c3c(sc2n1)C(=O)N(c1ccccc1C)CC(=O)N3 | i | 1.1 | nt | nt | nt | nt | 97
O=C(O)c1cc(N/N=C/c2cccs2)ccc1Cl | i | 0.88 | 1 | nt | nt | nt | 98
COC(=O)c1ccccc1NC1CC(=O)N(c2c(C)cccc2C)C1=O (stereo unspecified) | i | 0.89 | -6 | -3.2 | -20 | 166 | 105
CCn1ncc(C2=NOC(C(=O)Nc3cccnc3)C2)c1C (stereo unspecified) | i | 1.1 | -3 | -0.7 | -12 | 102 | 102
O=C(/C=C/c1ccc(OCc2cccc(Cl)c2)cc1)N1CCOCC1 | i | 0.98 | 0 | nt | 36 | 52 | 100
CCOC(=O)c1sc(=S)n(-c2ccc(OC)cc2)c1N | i | 1 | nt | nt | nt | nt | 109
Clc1ccc(-c2nc(NCCN3CCOCC3)c3ccccc3n2)cc1 | i | 0.81 | -5 | 0.8 | nt | nt | 110
CC1CCN(C(=O)CSc2nnc(Cc3cccn3C)n2-c2ccc(F)cc2)CC1 | i | 0.92 | -5 | -0.8 | 71* | 55* | 112
COC(=O)CN1C(=O)C2(C(C#N)=C(N)Oc3ccccc32)C2=C1CC(C)(C)CC2=O (stereo unspecified) | i | 1.1 | -7 | -1.4 | -14 | 138 | 100
CCOc1cc(/C=C2/N=C(C)C(C(=O)OC)=C2O)ccc1O | i | 0.95 | 3 | nt | -87 | 135 | 94
COCCN1C(=O)c2oc3c(C)cc(C)cc3c(=O)c2C1c1cccc(O)c1 (stereo unspecified) | i | 0.87 | -8 | 1.3 | 46 | 54 | 105
COc1ccc(C(CC(=O)O)NC(=O)c2sc3ccccc3c2Cl)cc1 (stereo unspecified) | i | 0.95 | -2 | -2.3 | nt | nt | 162
COc1ccc(-c2noc(-c3ccccc3C(=O)NCc3ccco3)n2)cc1OC | nt | nt | 0 | -3.9 | 10 | 131 | 94
CC(C)C(=O)Nc1ccc(Sc2ccc(F)cc2)cc1 | i | 0.53 | -8 | -1.4 | -37 | 99 | 71
COC(=O)c1ccc(N(C(=O)CNC(=O)c2ccco2)C(C(=O)NC2CCCC2)c2ccco2)cc1 (stereo unspecified) | i | 0.83 | -5 | -0.5 | 32 | 95 | 105
O=C(Cn1c(=S)[nH]c2ccccc2c1=O)N1CCN(c2ccc(F)cc2)CC1 | i | 0.83 | 5 | nt | 0 | 121 | 106
Cc1cc(Cl)ccc1NNC(N)=S | i | 1 | nt | nt | nt | nt | 99
S=c1[nH]nc(-c2ccco2)n1/N=C/c1c(Cl)cccc1Cl | i | 0.83 | nt | nt | nt | nt | 100
Cn1c(=O)c2c(nc(N3CCN(Cc4ccccc4)CC3)n2CC(=O)c2ccccc2)n(C)c1=O | i | 0.77 | -10 | -0.8 | -71 | 57 | nt
CCN(CCNC(=O)C1CCN(Cc2nc(-c3cccc(Cl)c3)oc2C)CC1)c1ccccc1 | i | 1.1 | 11 | 0.7 | nt | nt | 97
CCOc1ccc(-n2c(O)c(/C=N/c3ccnn3Cc3ccncc3)c3ccccc3c2=O)cc1 | i | 0.97 | -4 | nt | -3 | 93 | 100
O=c1[nH]cnc2ccc([N+](=O)[O-])cc12 | i | 0.95 | nt | nt | nt | nt | 102
CCOC(=O)c1cnn(-c2ccccc2)c1-c1ccccc1 | i | 0.83 | 9 | -0.9 | -14 | 155 | 101
Cn1cc(CCNC(=O)CC2C(=O)NCCN2CC(c2ccccc2)c2ccccc2)cn1 (stereo unspecified) | i | 0.92 | nt | nt | nt | nt | 96
Cc1c(NC(=O)/C(C#N)=C/C2CC=CCC2)c(=O)n(-c2ccccc2)n1C (stereo unspecified) | nt | nt | -1 | -1.9 | nt | nt | 104
O=C(OC(c1ccc(NS(=O)(=O)c2ccccc2)cc1)(C(F)(F)F)C(F)(F)F)c1ccccc1 | i | 0.84 | -8 | -1.7 | 58 | 71 | 42
COc1ccc(-c2n[nH]c3c2C(c2ccc(OC)c(OC)c2)N(c2ccccc2)C3=O)cc1 (stereo unspecified) | i | 1 | -11 | -0.7 | 69* | 68* | 101
O=C(c1ccccc1)N1CC(COc2ccccc2)OC(c2ccco2)O1 (stereo unspecified) | i | 1.1 | -20 | -2.5 | 38 | 85 | 101
NS(=O)(=O)c1ccc(NC(=S)NC2CCCC2)cc1 | i | 0.96 | -21 | -0.8 | 27 | 117 | 82
Cc1cccc(NC(=O)CSc2nsc(SCC(=O)Nc3cccc(C)c3)c2C#N)c1 | i | 0.98 | -6 | -0.2 | -28 | 108 | 87
Cc1ccc(NC(=O)Cc2ccc(-n3cccc3)cc2)c(C)c1 | i | 0.97 | -4 | 1.1 | 8 | 156 | 95
COc1ccc(Oc2ccc(/C=C/C(=O)c3ccc(O)cc3)cc2[N+](=O)[O-])cc1 | i | 0.5 | 2 | -1.4 | 38 | 107 | 104
CCOc1ccccc1C(=O)OCC(=O)Nc1ncc(C(F)(F)F)cc1Cl | i | 0.97 | -3 | -1.8 | 42 | 112 | 105
Cc1ccc(/C=C/C(=O)Nc2ccc([N+](=O)[O-])c(NC(=O)/C=C/c3ccc(C)o3)c2)o1 | i | 0.9 | 3 | -0.5 | -18 | 134 | 73
Cc1noc(C)c1COC(=O)c1ccc2c(c1)S(=O)(=O)c1ccccc1C2=O | i | 1.1 | 9 | 0.1 | nt | nt | 97
Cc1cccc(C(=O)N[C@H](C(=O)OCC(=O)NC(=O)c2cccn2C)C(C)C)c1 | i | 1.1 | -8 | -1.3 | 50 | 95 | 101
C=CCn1c(SCC(=O)Nc2nnc(C)s2)nnc1-c1cccnc1 | i | 0.62 | -7 | nt | -20 | 84 | 58
COc1ccc(NC(=O)CN2C(=O)C(C)SC(C)C2=O)cc1 (stereo unspecified) | i | 0.98 | -4 | -0.9 | nt | nt | 102
C/C(CC(=O)Nc1ccc([N+](=O)[O-])cc1)=N/NC(=O)C1CC12CCC2 (stereo unspecified) | i | 0.86 | 3 | nt | 58 | 89 | 95
CC(NC(=O)C(Cc1ccccc1)N1C(=O)C2C3CCC(C3)C2C1=O)c1ccccc1 (stereo unspecified) | i | 0.88 | -8 | 0.0 | -22 | 87 | 104
O=C(COC(=O)c1cccs1)NC1CCCCC1 | i | 0.97 | -10 | 0.0 | nt | nt | 105
COc1ccc2nc(NC(=O)C3CCCN(S(=O)(=O)c4cccc5nsnc45)C3)sc2c1 (stereo unspecified) | i | 1.1 | -6 | -1.6 | 32 | 125 | 98
COc1ccc([N+](=O)[O-])cc1N(CC(=O)NC1CCCCC1)S(C)(=O)=O | i | 0.96 | -5 | nt | 20 | 78 | 98
CCOc1cc(/C=N/Nc2cccc(C(=O)O)c2)ccc1OCC(=O)N1CCCCC1 | i | 1 | -3 | nt | 37 | 131 | 97
Cc1ccc(-n2c(C)cc3c2CC(C)(C)CC3=O)cc1C | i | 1.1 | -8 | -1.3 | 43 | 72 | 100
Cc1cc(NC(=O)C2CC2)ncc1NC(=O)c1ccccn1 | i | 0.92 | 10 | nt | nt | nt | 110
COc1ccc(CCN=CC2=C(O)CCCC2=O)cc1OC | i | 1 | 3 | -0.5 | nt | nt | 109
COc1ccc(N2CCN(c3ccc(N4C(=O)CC(C)C4=O)cc3[N+](=O)[O-])CC2)cc1 (stereo unspecified) | nt | nt | -3 | nt | 77* | 102* | 103
CCc1cc2c(SCC(=O)c3ccc(Cl)s3)ncnc2s1 | i | 1 | 3 | -1.6 | 7 | 124 | 113
CCSc1nnc(NC(=O)[C@@H](NC(=O)c2ccccc2)C(C)C)s1 | i | 0.94 | -10 | 0.6 | 25 | 91 | 110
C/C(=N\NC(=O)c1cc(C(C)(C)C)[nH]n1)C12CC3CC(CC(C3)C1)C2 | i | 1 | 3 | nt | nt | nt | 114
CC(OC(=O)c1cc(S(=O)(=O)N(C)c2ccccc2)ccc1Cl)C(=O)Nc1ccc2c(c1)OCCO2 (stereo unspecified) | i | 0.98 | -3 | -0.6 | -10 | 96 | 107
Cc1ccc(CNC(=O)/C=C/c2ccc(S(=O)(=O)N3CCOCC3)cc2)cc1 | i | 0.87 | 2 | 0.2 | nt | nt | 110
CC(C)N(C)S(=O)(=O)c1ccc(Cl)c(C(=O)O)c1 | i | 0.97 | 2 | nt | nt | nt | 98
Cc1cccc(NC(=O)CCCn2c(=S)[nH]c3ccccc3c2=O)c1 | i | 0.86 | 0 | nt | 40 | 94 | 104
Cc1cccc(/C=N/Nc2ccc3ccccc3n2)c1 | i | 0.9 | 2 | nt | -27 | 135 | 107
COc1ccc(N2CCN(C(=O)NC3CC(=O)N(c4ccc(OC)cc4)C3)CC2)cc1 (stereo unspecified) | i | 1 | -11 | nt | 67 | 85 | 111
CC1(C)NC(=O)N(CC(O)COc2ccc(N3C(=O)c4ccccc4C3=O)cc2)C1=O (stereo unspecified) | i | 1 | 3 | -0.8 | -43 | 128 | 102
CCC1c2ccc(C)n2CCN1C(=O)Nc1ccccc1OC (stereo unspecified) | i | 0.99 | 0 | 0.8 | -16 | 85 | 108

Two entries drawn at random from those above, as already listed:
SMILES | HSV augment | HSV augment primary fold | PKD1 inh | GALR2 ag | INS promoter inh | INS promoter inh cell count | RGS16-Gao HTS
O=C(/C=C/c1ccc(OCc2cccc(Cl)c2)cc1)N1CCOCC1 | i | 0.98 | 0 | nt | 36 | 52 | 100
COc1cc(C2C(C(=O)c3ccc(C)o3)=C(O)C(=O)N2CCc2ccccc2)ccc1O (stereo unspecified) | i | 1 | 0 | -3.8 | -123 | 76 | 100

Screening data (PubChem BioAssay)

Rows were taken by chance. Share with any hit: about 1.1%.
